Bioassay records as filed in PubChem BioAssay.
GLA inh pH 4.5: blocks human alpha-galactosidase A at pH 4.5; AID 1467; 230,000 tested, under 10 active; purified enzyme, 4-MU-alpha-Gal fluorescence, pH 4.5; activity change, negative = inhibition, % at 105 µM; P06280; inconclusive = small, poorly fitted or top-dose-only inhibition, or a rising curve; inactive = flat fitted curve, though single readings scatter; no compound was filed as active;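 note: 0% = full activity with enzyme and -100% = basal without enzyme; dose as in the result columns while the protocol names 77 µM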
Rango-impB inh: inhibitors of Rango-importin beta complex formation; Rango CFP/YFP FRET sensor + importin beta, 45 min; AID 540263; Q14974; 340,000 compounds, 0.031% hits; Potency, µM (series often up to 92.2 µM), for inactives: at the top dose inhibition of complex formation; active = rising FRET ratio curve, often small or poorly fitted; inconclusive = mostly compound fluorescence or quenching in the first reads; inactive = flat curves in all reads;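 note: potency is the fitted concentration of half-maximal effect; 0% = DMSO wells and 100% = buffer wells lacking importin beta; nearly all actives have a fitted effect of over 15% in size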
Target sequence (Q14974 whole entry, looked up): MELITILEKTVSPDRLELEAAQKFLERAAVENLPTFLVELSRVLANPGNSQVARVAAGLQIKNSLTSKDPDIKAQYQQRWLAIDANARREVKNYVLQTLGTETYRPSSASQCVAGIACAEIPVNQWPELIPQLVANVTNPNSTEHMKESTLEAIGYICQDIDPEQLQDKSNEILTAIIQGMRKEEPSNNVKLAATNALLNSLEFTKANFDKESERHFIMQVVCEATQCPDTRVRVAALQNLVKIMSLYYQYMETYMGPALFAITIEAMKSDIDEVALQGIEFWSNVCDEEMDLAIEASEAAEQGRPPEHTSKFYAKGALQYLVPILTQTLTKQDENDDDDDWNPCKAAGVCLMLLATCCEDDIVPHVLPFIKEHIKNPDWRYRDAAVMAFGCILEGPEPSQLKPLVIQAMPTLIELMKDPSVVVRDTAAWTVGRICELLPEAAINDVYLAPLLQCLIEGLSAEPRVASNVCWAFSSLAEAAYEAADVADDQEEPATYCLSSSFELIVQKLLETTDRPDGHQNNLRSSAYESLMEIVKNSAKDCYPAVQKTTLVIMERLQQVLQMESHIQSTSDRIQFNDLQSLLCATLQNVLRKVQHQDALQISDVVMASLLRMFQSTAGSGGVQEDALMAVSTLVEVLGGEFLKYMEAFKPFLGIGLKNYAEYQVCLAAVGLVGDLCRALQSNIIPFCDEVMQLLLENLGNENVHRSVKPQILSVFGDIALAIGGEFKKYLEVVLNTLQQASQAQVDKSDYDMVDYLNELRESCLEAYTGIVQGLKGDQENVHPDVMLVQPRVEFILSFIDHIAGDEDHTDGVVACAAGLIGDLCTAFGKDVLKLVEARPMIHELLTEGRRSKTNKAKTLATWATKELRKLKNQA
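FRET biosensor Rango (snurportin 1 IBB between N-terminal EYFP and C-terminal Cerulean), 50 nM in PBS/1 mM DTT/0.02% Tween-20/0.1% BSA, preincubated 5 min RT with compound; 0.125 microM importin beta added, 45 min RT, CFP/YFP FRET ratio read.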
Rango dissoc inh: inhibitors of RanGTP-induced Rango-importin beta complex dissociation; 340,000 compounds, 0.071% hits; O95149+P62826; Potency, µM (doses to about 46.1 µM), for inactives: at the top dose activity change, negative = inhibition; Biochemical FRET Rango-importin beta, RanGTP-induced dissociation; active means falling FRET ratio curve, often poorly fitted, with flat reads before Ran was added; inconclusive means other falling curves, or compound fluorescence or quenching; inactive means flat or rising ratio curve;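 note: potency is the fitted concentration of half-maximal effect; % of control where 0% means no effect; nearly all actives have a fitted effect of over 45% in size; -100% = wells without RanGTP and RCC1; the record marks most hits as doubtful in a second field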
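Rango (0.1 uM)–importin beta (0.25 uM) complex; RanGTP-RCC1 trigger; 45 min RT; CFP/YFP FRET read.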
miR-21 reporter: miR-21 reporter, rising signal. HeLa miR-21 FLuc reporter, luciferase, 48 h. 340,000 tested, under 10 active. Potency, µM (series often up to 38.3 µM), for the others: at the highest dose reporter change, positive = more light; active = well fitted rising curve with a large enough effect; inconclusive = small, poorly fitted or top-dose-only effect; inactive = no such curve, though single readings can be large or run the other way;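 note: % of control where 0% means no effect; miR-21 action dims this reporter so a rising signal means less miR-21 action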
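HeLa miR-21-FLuc reporter line, endogenous miR-21; 2000 cells/well in DMEM/10% FBS; compound titration up to ~40uM final, 48 h, 37 degree Celsius; luciferase detection reagent, 15 min lysis, CCD luminescence.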
An asterisk follows results filed as active; & = joins results of further samples. An excerpt, so the mix of outcomes need not match the whole.

Screening COc1ccc(C2/C=C\CN(C(=O)c3ccc(C)cc3)[C@H](Cc3ccccc3)C(=O)N2Cc2ccc(F)cc2)cc1 (stereo partly specified) returned GLA inh pH 4.5 -1, Rango-impB inh -0.5%, Rango dissoc inh -6% and miR-21 reporter inconclusive.
O=C(CC1SC(=NCCc2ccccc2)N(/N=C/c2cccs2)C1=O)Nc1ccc(Cl)cc1 (stereo unspecified) was read as GLA inh pH 4.5 8, Rango-impB inh -1.1%, Rango dissoc inh -5% and miR-21 reporter -8%.
For CNC(=S)c1cc(C(C)(C)C)c(O)c(C(C)(C)C)c1 the results were GLA inh pH 4.5 -4, Rango-impB inh inconclusive, Rango dissoc inh inconclusive and miR-21 reporter -4%.
For O=C(O)Cc1ccc2ocnc2c1 the results were GLA inh pH 4.5 -1, Rango-impB inh -0.3%, Rango dissoc inh -11% and miR-21 reporter -4%.
`O=C(c1ccc(Cl)cc1)c1cc([N+](=O)[O-])ccc1N1CCOCC1` gave GLA inh pH 4.5 -2, Rango-impB inh 1.1%, Rango dissoc inh -9% and miR-21 reporter 14%.
NNC(=O)c1cccc(COc2ccc3c(c2)CCC3)c1 was read as GLA inh pH 4.5 6, Rango-impB inh 0.1%, Rango dissoc inh -4% and miR-21 reporter -62%.
`Cn1c(C(=O)NCC2CCCO2)cc2c(=O)n3ccccc3nc21` (stereo unspecified) gave GLA inh pH 4.5 inconclusive, Rango-impB inh inconclusive, Rango dissoc inh -10% and miR-21 reporter -18%.
CCCc1cc(=O)[nH]c(SCc2nc3ccccc3o2)n1 was read as Rango-impB inh -4.1%, Rango dissoc inh 4% and miR-21 reporter -1%.
Screening CCOC(=O)N/N=C/c1cc(C)n(-c2cccc3ccccc23)c1C returned GLA inh pH 4.5 -2, Rango-impB inh 2.3%, Rango dissoc inh -5% and miR-21 reporter -4%.
`Cc1cccc(NS(=O)(=O)c2ccc3c(c2)oc(=O)n3C)c1C` gave Rango-impB inh 1.6%, Rango dissoc inh 4% and miR-21 reporter 0%.
For O=C(O)CC/C(=C\c1cccc(NC(=O)c2ccccc2Cl)c1)c1nc2ccccc2s1 the results were GLA inh pH 4.5 inconclusive, Rango-impB inh -0.4%, Rango dissoc inh -1% and miR-21 reporter -22%.
Screening COc1cccc(C(=O)CC(=O)C(=O)Nc2ccc(C)cc2Cl)c1 returned Rango-impB inh -5.4%, Rango dissoc inh -1% and miR-21 reporter -9%.
O=C(c1ccccc1)N1CCN(S(=O)(=O)N2CCCCCC2)CC1 was read as Rango-impB inh -3.5%, Rango dissoc inh -2% and miR-21 reporter 0%.
`C/C(=N\NC(=O)CNC(=O)c1ccncc1)c1ccc(C)cc1` gave GLA inh pH 4.5 4, Rango-impB inh 4.4%, Rango dissoc inh 3% and miR-21 reporter 1%.
`Cc1ccc(S(=O)(=O)N2CCN(C(=O)Cn3cnc4c3c(=O)n(C)c(=O)n4C)CC2)cc1C` gave Rango-impB inh -1.4% and Rango dissoc inh -13%.
For O=C1CCN(Cc2cccnc2)CCN1[C@H](CO)Cc1ccccc1 the results were Rango-impB inh -1.7%, Rango dissoc inh 22% and miR-21 reporter 0%.
Screening O=C(CSCc1cccc(CSCC(=O)Nc2ccccc2)n1)Nc1ccccc1 returned GLA inh pH 4.5 -6, Rango-impB inh 2.3%, Rango dissoc inh 2% and miR-21 reporter 0%.
Screening CC(C)Oc1ccc(C(=O)NC2(C(F)(F)F)NC(=O)N(CCCc3ccccc3)C2=O)cc1 (stereo unspecified) returned GLA inh pH 4.5 -7, Rango-impB inh -4.2%, Rango dissoc inh 0% and miR-21 reporter 2%.
For COc1cccc(C(=O)Nc2ccc(N3CCCC3)cc2)c1 the results were GLA inh pH 4.5 4, Rango-impB inh -0.1%, Rango dissoc inh -16% and miR-21 reporter -8%.
Screening COc1cc(NC(=O)c2ccc(-c3ccc(Br)cc3)o2)ccc1NC(=O)C(C)C returned GLA inh pH 4.5 3, Rango-impB inh 0.0%, Rango dissoc inh -9% and miR-21 reporter -2%.
`CCCC(=O)NC(Nc1ccccc1F)C(Cl)(Cl)Cl` (stereo unspecified) gave GLA inh pH 4.5 -24 and miR-21 reporter 0%.
For COC(=O)c1cc(OC)c(OC)cc1NC(=O)Nc1cccc(C(C)=O)c1 the results were GLA inh pH 4.5 8, Rango-impB inh 1.9%, Rango dissoc inh -10% and miR-21 reporter 0%.
For COc1cc2c(cc1OC)-c1cc(N3CCc4ccccc43)nc(=O)n1CC2 the results were GLA inh pH 4.5 -8, Rango-impB inh inconclusive, Rango dissoc inh inconclusive and miR-21 reporter -18%.
`O=C1CN(C(=O)c2cccc(Br)c2)c2ccccc2N1` gave Rango-impB inh -0.2%, Rango dissoc inh 4% and miR-21 reporter 30%.
Screening Cc1ccc(CNC(=O)COC(=O)c2cccnc2Cl)cc1 returned Rango-impB inh -1.0% and Rango dissoc inh 1%.
For Cc1csc(=O)n1CC(=O)OCc1nnc(-c2ccc([N+](=O)[O-])cc2)o1 the results were Rango-impB inh -0.9% and Rango dissoc inh -10%.
For O=S(=O)(N/N=C/c1ccc(Cl)cc1)c1ccc(Cc2ncc(C(F)(F)F)cc2Cl)s1 the results were GLA inh pH 4.5 -6, Rango-impB inh inconclusive, Rango dissoc inh -23% and miR-21 reporter -1%.
c1ccc(CN2CCOCC2)cc1 was read as GLA inh pH 4.5 2, Rango-impB inh 0.5%, Rango dissoc inh 0% and miR-21 reporter 6%.
Screening O=C(CN1CCCCC1)N1c2ccccc2CCc2ccccc21 returned GLA inh pH 4.5 -10, Rango-impB inh 2.5%, Rango dissoc inh 1% and miR-21 reporter 0%.
For CC(=O)OC1C(N2CCCCC2)c2c(ccc(/C=C/C(=O)N3CCCCC3)c2O)OC1(C)C (stereo unspecified) the results were GLA inh pH 4.5 -2, Rango-impB inh -3.6%, Rango dissoc inh 3% and miR-21 reporter -18%.

Five compounds picked at random from the list so far, as already listed:
`CCCC(=O)NC(Nc1ccccc1F)C(Cl)(Cl)Cl` (stereo unspecified) gave GLA inh pH 4.5 -24 and miR-21 reporter 0%.
CCCc1cc(=O)[nH]c(SCc2nc3ccccc3o2)n1 was read as Rango-impB inh -4.1%, Rango dissoc inh 4% and miR-21 reporter -1%.
For O=C1CCN(Cc2cccnc2)CCN1[C@H](CO)Cc1ccccc1 the results were Rango-impB inh -1.7%, Rango dissoc inh 22% and miR-21 reporter 0%.
`O=C1CN(C(=O)c2cccc(Br)c2)c2ccccc2N1` gave Rango-impB inh -0.2%, Rango dissoc inh 4% and miR-21 reporter 30%.
O=C(c1ccccc1)N1CCN(S(=O)(=O)N2CCCCCC2)CC1 was read as Rango-impB inh -3.5%, Rango dissoc inh -2% and miR-21 reporter 0%.

(next part)
Screening Cc1ccc(CSCC(=O)NCc2ccco2)cc1 returned GLA inh pH 4.5 4, Rango-impB inh -0.6%, Rango dissoc inh 4% and miR-21 reporter -8%.
Screening Cc1ccc(S(=O)(=O)N2CC(O)C2)cc1 returned Rango-impB inh 0.8% and Rango dissoc inh -5%.
For CC(=O)N/C(=C/c1ccc2c(c1)OCO2)C(=O)Nc1ccccc1 the results were GLA inh pH 4.5 -2, Rango-impB inh -3.1%, Rango dissoc inh 1% and miR-21 reporter -35%.
`Cc1ccc(C(=O)NC2CC(=O)N(c3ccc4c(c3)OCCO4)C2)cc1[N+](=O)[O-]` (stereo unspecified) gave Rango-impB inh 3.1% and Rango dissoc inh 0%.
For Cc1ccc(S(=O)(=O)Nc2ccc(N3CCOCC3)nc2)cc1 the results were GLA inh pH 4.5 7, Rango-impB inh 1.3%, Rango dissoc inh -17% and miR-21 reporter -10%.
Screening COc1ccc(C2CC(c3cccc(C(F)(F)F)c3)=NN2c2ccc(S(N)(=O)=O)cc2)cc1 (stereo unspecified) returned Rango-impB inh inconclusive and Rango dissoc inh inconclusive.
Screening CN(C(=O)COC(=O)C1=COCCO1)c1c(N)n(Cc2ccccc2)c(=O)[nH]c1=O returned Rango-impB inh 1.6% and Rango dissoc inh 21%.
`COC(=O)c1cc(OC(=O)CCc2ccc(OC)c(OC)c2)cc(C(=O)OC)c1` gave Rango-impB inh -0.3%, Rango dissoc inh 9% and miR-21 reporter 0%.
`CSCC[C@H](NC(=O)Nc1ccc(C)cc1)C(=O)O` gave GLA inh pH 4.5 12, Rango-impB inh -0.1%, Rango dissoc inh -7% and miR-21 reporter -5%.
Screening CCCCNC(=O)C(Sc1ccccc1)c1ccccc1 (stereo unspecified) returned GLA inh pH 4.5 -5, Rango-impB inh -0.7%, Rango dissoc inh 6% and miR-21 reporter 1%.
For CCOc1cc(/C=N/NC(=O)c2cc(C)[nH]n2)ccc1OC(=O)c1ccc([N+](=O)[O-])cc1 the results were GLA inh pH 4.5 10 and miR-21 reporter -5%.
`C=CCn1c(=N)c(C(=O)OC)cc2c(=O)n3cccc(C)c3nc21` gave GLA inh pH 4.5 3 and miR-21 reporter -1%.
For COc1ccc(N2CCN(C(=O)CSc3nnc(NC(=O)C4CC4)s3)CC2)cc1 the results were GLA inh pH 4.5 -14, Rango-impB inh -1.3%, Rango dissoc inh -2% and miR-21 reporter 6%.
Cc1cccc(-n2nnnc2SCC(=O)Nc2cccc(S(N)(=O)=O)c2)c1 was read as GLA inh pH 4.5 -12, Rango-impB inh -4.3%, Rango dissoc inh -1% and miR-21 reporter 2%.
CCCC(c1nnnn1CCOC)N1CCN(c2cccc(OC)c2)CC1 (stereo unspecified) was read as GLA inh pH 4.5 -10, Rango-impB inh -4.2%, Rango dissoc inh -25% and miR-21 reporter -2%.
For CC(C)(C)C(=O)Nc1cccc(C(=O)Nc2cc(C(=O)O)cc(C(=O)O)c2)c1 the results were GLA inh pH 4.5 3, Rango-impB inh 0.1%, Rango dissoc inh 15% and miR-21 reporter -9%.
`Cc1ccc(S(=O)(=O)N2[C@@H](c3ccccc3F)C(C(=O)O)=CC[C@H]2c2cccs2)cc1` gave Rango-impB inh 0.0% and Rango dissoc inh 1%.
Screening NC(=O)OCC(COC(N)=O)c1ccccc1 returned GLA inh pH 4.5 -1&6, Rango-impB inh -0.1%&3.8%, Rango dissoc inh -2%&-8% and miR-21 reporter 5%.
`CC(C)c1nnc(SCc2ccc(CSc3nnc(C(C)C)n3N)cc2)n1N` gave GLA inh pH 4.5 -2, Rango-impB inh 0.2%, Rango dissoc inh 0% and miR-21 reporter 0%.
For CC1CCCCC1NC(=O)C1Cc2ccccc2CN1S(C)(=O)=O (stereo unspecified) the results were GLA inh pH 4.5 -10, Rango-impB inh -0.1%, Rango dissoc inh 6% and miR-21 reporter -1%.
For Cc1ccc(OCC(=O)Nc2nnc(C3CCCO3)s2)c(Br)c1 (stereo unspecified) the results were GLA inh pH 4.5 3, Rango-impB inh 0.9%, Rango dissoc inh 16% and miR-21 reporter -29%.
Screening N#CC1=C2SCN(c3ccccc3)CN2C(=O)CC1c1c(Cl)cccc1Cl (stereo unspecified) returned GLA inh pH 4.5 7, Rango-impB inh -0.4%, Rango dissoc inh -4% and miR-21 reporter 1%.
For COc1ccc(/C=C/C(=O)NC(=S)NN2CCCCC2c2cccnc2)cc1OC (stereo unspecified) the results were GLA inh pH 4.5 3, Rango-impB inh -0.4%, Rango dissoc inh 0% and miR-21 reporter -21%.
Screening COc1cccc2c1C(CO)N1C(C#N)C3CC(C(=O)O)C(C1C2)N3C (stereo unspecified) returned GLA inh pH 4.5 -2, Rango-impB inh -0.8%, Rango dissoc inh 12% and miR-21 reporter inconclusive.
Screening Cc1nc(-n2nnc3cc(C)c(C)cc32)c2c3c(sc2n1)CCCC3 returned GLA inh pH 4.5 -6, Rango-impB inh 1.0%, Rango dissoc inh 1% and miR-21 reporter 1%.
For Cc1ccccc1OCCNc1cc(N2CCN(CCO)CC2)ccc1[N+](=O)[O-] the results were GLA inh pH 4.5 -5, Rango-impB inh -3.6%, Rango dissoc inh 7% and miR-21 reporter 0%.
Screening NC(=O)c1sc2nc3c(c(-c4ccccc4)c2c1N)CCC3 returned GLA inh pH 4.5 1, Rango-impB inh inconclusive, Rango dissoc inh inconclusive and miR-21 reporter inconclusive.
